Kir21 block: Kir2.1 (mouse) channel inhibition; AID 1672; B-score at 10 µM; P35561; HEK293-Kir2.1, FluxOR thallium flux fluorescence; stronger effect = lower value; actives 0.85% (n = 310,000);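 active = fluorescence ratio B-score at or below minus 3 SD of library scores, with starting-brightness B-score within 2 SD, cut at about -4.2 in these data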;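 also: channel flux triggered by added potassium and thallium sulfate stimulus; B-score of peak minus minimum fluorescence over baseline after thallium stimulus; more negative B-score means stronger Kir2.1 block with less thallium influx; some compounds called inactive have numbers as strong as hits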
Target sequence (P35561 whole entry, looked up): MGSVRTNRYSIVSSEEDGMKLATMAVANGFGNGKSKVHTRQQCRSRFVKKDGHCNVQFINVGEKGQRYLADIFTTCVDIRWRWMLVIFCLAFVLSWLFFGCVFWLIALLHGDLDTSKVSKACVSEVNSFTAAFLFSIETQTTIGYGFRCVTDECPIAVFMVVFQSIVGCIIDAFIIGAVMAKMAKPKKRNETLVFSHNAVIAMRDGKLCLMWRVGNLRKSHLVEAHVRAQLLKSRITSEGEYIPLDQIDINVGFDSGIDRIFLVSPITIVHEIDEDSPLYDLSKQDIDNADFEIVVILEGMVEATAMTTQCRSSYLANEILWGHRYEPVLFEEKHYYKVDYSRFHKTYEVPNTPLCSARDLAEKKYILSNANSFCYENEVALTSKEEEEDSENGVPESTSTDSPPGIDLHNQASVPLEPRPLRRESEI
The depositor's hits bear a star. These rows are one share of the data, and most or all hits are left out here.

canonical_smiles | Kir21 block
C/C=C\C=C/C(=O)Nc1cccc(C2=NOC3(C2)C[C@H](C(N)=O)N(C(=O)CC)C3)c1 (some centres undefined) | 0.56
O=C(CSc1nnc(-c2ccccn2)n1Cc1ccccc1)N1CCCC1 | 0.73
CCOC(=O)c1ccc(N/C(=N/S(=O)(=O)c2ccccc2)c2ccccc2)cc1 | -0.73
COc1cccc(CN2CCN(Cc3cc4ccccc4o3)CC2CCO)c1 (centres undefined) | -0.59
CN(CC(=O)Nc1c(Cl)cccc1Cl)C(=O)CCCN1C(=O)c2ccccc2C1=O | 1.31
O=C(O)C1(S(=O)(=O)c2ccc(Cl)cc2)CCC1 | 0.59
Cc1cccc(-n2nnc(C(=O)Nc3ccc(F)cc3)c2N)c1 | -1.13
CC(=O)NC[C@H]1CN(c2ccc(N3CCOCC3)c(F)c2)C(=O)O1 | 0.78
CC(=O)N1CCN(c2ccc(NC(=O)c3cc(Cl)ccc3Cl)cc2)CC1 | -1.05
CN([C@@H](C(=O)OC(C)(C)C)c1ccccc1)S(=O)(=O)c1cccc(S(=O)(=O)N(C)[C@@H](C(=O)OC(C)(C)C)c2ccccc2)c1 | 2.07
O=C(CCCc1ccccc1)c1ccccc1 | -0.61
Cc1c(Cl)cccc1NC(=O)COc1ccc(S(=O)(=O)N2CCOCC2)cc1 | 1.73
Cc1nc(N2CCN(C(=O)c3ccco3)CC2)c2c3c(sc2n1)CCC3 | 0.24
Cc1cc(NC(=O)Cn2cc([N+](=O)[O-])cn2)n(Cc2ccc(F)cc2)n1 | 0
Cc1nc2cc(Cl)c(Cl)cc2n1CCCO | 0.12
CCOc1cc(N2CCOCC2)c(OCC)cc1NC(=O)c1cc(C)nc2ccccc12 | 0.65
O=C(Cn1cnc2ccccc2c1=O)N(Cc1ccco1)c1ccc(O)cc1 | -0.97
Cc1nn(C)c(C)c1CS(=O)(=O)c1ccccc1 | -0.92
O=C(NC(=O)c1ccccc1)Nc1ccc(-c2cnco2)cc1 | 0.47
COC(=O)c1sccc1NC(=O)CN(C)NS(=O)(=O)c1ccc([N+](=O)[O-])cc1 | 1.86
COc1ccc(Oc2nc(-c3cccnc3)nc3ccccc23)cc1 | -0.08
COc1cccc(C(=O)CSc2nnc(-c3cccs3)o2)c1 | 0.93
Cc1ccc(N2CCN(/N=C/c3ccncc3)CC2)cc1 | 2.28
CCOC(=O)C(Cc1ccccc1)NC(=O)CCc1c(C)nc2nc(C)nn2c1C (centres undefined) | 0.48
Cc1ccc(COC(=O)CCCN=C2NS(=O)(=O)c3ccccc32)cc1 | -2.32
CC(C)CCn1c(NCCc2ccccc2)nc2c1c(=O)n(C)c(=O)n2C | -0.78
O=C(O)c1cc2nc(-c3ccccc3)cc(C(F)(F)F)n2n1 | -0.34
O=C1CCc2cc(S(=O)(=O)NC(Cc3ccccc3)C(=O)NC3CCCCC3)ccc2N1 (centres undefined) | 1.63
C/C(=N/NC(=O)c1ccc2c(c1)OCO2)c1cccc(NC(=O)C(C)(C)C)c1 | 0.84
COc1ccc(-c2nnn(CC(=O)N(c3cccc(O)c3)C(C)C(=O)NC3CCCC3)n2)cc1OC (centres undefined) | 0.72

Reprinted from the listing for reference:
canonical_smiles | Kir21 block
COc1ccc(Oc2nc(-c3cccnc3)nc3ccccc23)cc1 | -0.08
COc1cccc(C(=O)CSc2nnc(-c3cccs3)o2)c1 | 0.93
Cc1ccc(N2CCN(/N=C/c3ccncc3)CC2)cc1 | 2.28
CCOC(=O)C(Cc1ccccc1)NC(=O)CCc1c(C)nc2nc(C)nn2c1C (centres undefined) | 0.48

Next section:
canonical_smiles | Kir21 block
COc1ccc(C2CC(=O)c3c(ccc4ccccc34)N2)cc1OC (centres undefined) | -2
Cc1c(OCC(=O)NC(Cc2c[nH]c3ccc(O)cc23)C(=O)O)ccc2c3c(c(=O)oc12)CCC3 (centres undefined) | 1.54
C/C(N)=C(/C#N)C(=O)COC(=O)CCC1CCCC1 | -0.42
COc1ccc(CN2CCN(C(=O)c3ccco3)CC2)cc1 | -1.32
CCOC(=O)c1c(C)[nH]c(C)c1C(=O)COC(=O)c1ccc(Cl)c(S(=O)(=O)NCc2ccccc2)c1 | 1.49
CC(=O)N1c2ccc(S(=O)(=O)N3CCC(C(=O)NCc4ccc(F)cc4)CC3)cc2CC1C (centres undefined) | -0.04
O=C(NC1CCCC1)C(c1ccc(N2CCOCC2)cc1)N(Cc1ccccc1)C(=O)c1ccco1 (centres undefined) | 0.48
O=C(O)CCC(=O)Nc1ccc(Br)cc1C(=O)c1ccccc1 | 0.69
CS(=O)(=O)N1CCc2cc(S(=O)(=O)Nc3ccc4c(c3)OCCO4)ccc21 | -0.58
O=C(CN1C(=O)NC(Cc2ccccc2)C1=O)NC(=O)NC1CCCCC1 (centres undefined) | 1.44
COCCCNC(=S)N1CCN(c2nc(-c3cccc(OC)c3)cs2)CC1 | 1.4
Cc1nn(Cc2ccccc2)c2sc(C(=O)NCc3cccnc3)cc12 | -0.79
FC(F)(F)c1ccc(Cl)c(-n2c(-c3cc(-c4ccco4)[nH]n3)n[nH]c2=S)c1 | -0.22
COc1ccc(-c2cn3ccccc3n2)cc1 | 0.47
Cc1ccc(S(=O)(=O)N2CCOCC2)cc1NC(=O)CSc1nc(N)cc(=O)[nH]1 | 0.75
CCOc1cc2[nH]c(=S)n(Cc3ccc(C)o3)c(=O)c2cc1OCC | -0.54
COc1cc(/C=N/Nc2nc3ccccc3[nH]2)cc(Br)c1OCC(=O)N(C)C | -0.28
Cc1cc(=O)[nH]c2c1c(=O)[nH]n2C1CC(C)N(C)CC1C (centres undefined) | -0.92
COc1ccc(C(=O)Nc2sc3c(c2C#N)CCN(C(C)=O)C3)cc1 | -0.22
COc1cc(OC)cc(C(=O)NCC(=O)NC(C)c2ccccc2)c1 (centres undefined) | 1.15
Cc1c(Cl)cccc1NC(=O)COC(=O)CN1C(=O)NC(C)(C)C1=O | -0.74
Cc1ccc(N=C2NC(=O)c3cccc([N+](=O)[O-])c32)cc1 | -0.63
CN(CC(=O)Nc1ccc(S(=O)(=O)N(C)C)cc1)Cc1ccc(C(F)(F)F)cc1 | -1.38
O=C(CSc1ncc(S(=O)(=O)c2ccccc2)c(=O)[nH]1)Nc1ccccc1Cl | -0.13
COc1cc2c(cc1OC)CN(CC(=O)Nc1ccc(S(=O)(=O)N(C)C)cc1)CC2 | 0.42
CCCn1nnnc1NCc1cccc(OC)c1OC | -0.25
Cc1ccc2c(c1)COc1c3ccc(C(=O)N[C@@H](C)CO)cc3nn1-2 | -0.09
O=[N+]([O-])c1nn(-c2ccc(Cl)cc2)n(O)c1=NCc1ccccc1Cl | 2.61
COc1ccc(C(=O)NC(=S)Nc2ccc3oc(=O)ccc3c2)cc1[N+](=O)[O-] | 0.73
NS(=O)(=O)c1cccc(NC(=O)c2cc(-c3cccs3)nc3ccccc23)c1 | -1.94
Cc1cc(NC(=O)CSc2ccccn2)no1 | -0.12
CCN(C(=O)c1cc2c(=O)[nH]c3ccc(C)cc3c2s1)c1ccc(OC)cc1 | 0.21
Cc1ccc(CN(Cc2cccnc2)C(=O)CN2C(=O)COc3ccccc32)o1 | 0.41
C[C@@H]1CN(C(=O)c2nc3ccc(Cl)cn3c2CN(C)CCc2cnn(C)c2)C[C@H](C)O1 | -1.07
C/C(=N/NC(N)=S)c1ccccc1[N+](=O)[O-] | -0.81
CCOC(=O)N1CCC(NC(=O)c2cc(S(=O)(=O)N3CCC4(CC3)OCCO4)ccc2F)CC1 | -0.22
O=C(O)c1ccc(S(=O)(=O)c2ccc3c(c2)C(=O)N(Cc2ccco2)C3=O)cc1 | 1.29
COc1ccc(NC(=O)N2CCC(c3ccccc3)C2)c(OC)c1 (centres undefined) | 0.94
COC(=O)CSC1=C(C#N)C(c2ccccc2OC)C(C(=O)OC)C(=O)N1 (centres undefined) | -0.36
Cc1cc(CN(C)C(=O)C2CCC(=O)N(CCc3ccccc3)C2)n[nH]1 (centres undefined) | -0.34
Cc1ccc(NC(=O)CN(C)C(=O)CNC(=O)c2cccs2)cc1 | 0.01
CC1(C)CC(=O)C2=C(C1)C(c1cn(-c3ccccc3)nc1-c1ccccc1)C(C#N)=C(N)O2 (centres undefined) | -0.52
O=C1/C(=C/c2cccnc2)Oc2cc(OS(=O)(=O)c3ccccc3)ccc21 | -0.58
Cc1occc1C(=O)Nc1cccc([N+](=O)[O-])c1C | -0.03
CCOCC(=O)NCc1ccc2c(c1)OCO2 | 0.98
CCc1ccc(-n2c(SCC(=O)Nc3cccc(S(=O)(=O)NC4=NCCCCC4)c3)nc3ccccc3c2=O)cc1 | 0.81
O=C(Cn1nc(Cc2ccncc2)c2ccccc2c1=O)N1CCN(C(=O)c2ccco2)CC1 | 0.02
O=C(OCCOCn1cc(Br)c(=O)[nH]c1=O)c1ccccc1 | 0.09
Nc1ccc(C(=O)Oc2ccc([N+](=O)[O-])cc2)c(O)c1 | -0.2
COC(=O)C1=C(C)NC(=O)/C1=C\N(C)C | -2.57

Going on with the list.
canonical_smiles | Kir21 block
Fc1ccc(NC(=S)NCc2ccccc2)cc1 | 0.46
Cc1cc(C)c(C)c(S(=O)(=O)NC(C(=O)O)C(C)C)c1C (centres undefined) | 0.48
CC1(c2ccc([N+](=O)[O-])cc2)NC(=O)N(CC(=O)Nc2ccc(N3CCCCC3)cc2)C1=O (centres undefined) | -0.95
N#CC1=C(N)N2C(=C(C#N)C1c1ccccc1)Sc1ccccc12 (centres undefined) | 0
Cn1ccnc1/C(=N\NC(=O)c1ccccc1)c1cccc([N+](=O)[O-])c1 | 1.27
Cc1ccc(CCNC(=O)Cn2cccc2)cc1 | -0.08
Cc1c(CN2CCCCC2)c(O)n(CCO)c(=O)c1C#N | -0.07
CNC(=S)N/N=C/c1cccc(OCc2ccccc2F)c1 | -4.69
Cc1cc(NC(=O)c2cccnc2)ccc1NC(=O)c1ccco1 | -0.61
NC(=S)NC(=O)/C=C/c1ccccc1 | -0.89
CCc1ccc(CN2CC(C(=O)O)CC2=O)cc1 (centres undefined) | -0.07
O=C1CSC(c2cccc(F)c2)N1c1ccccc1F (centres undefined) | -0.04
Cc1cc(C)c(NC(=O)CN2CCN3CCCC3C2)c(C)c1 (centres undefined) | -1.54
Cc1csc2nnc(N)n12 | -1.36
COC(CNC(=O)C1CCCN(S(=O)(=O)c2ccc3c(c2)oc(=O)n3C)C1)OC (centres undefined) | 0.87
Cc1ccc(S(=O)(=O)N(C)c2nc3ccccc3[nH]c2=S)cc1 | 0.68
CCC(CC)C(=O)c1c[nH]c(C(=O)NCc2ccccn2)c1 | 1.04
Cc1c(CCC(=O)O)c(=O)oc2c(C)c(OCc3ccccc3Cl)ccc12 | 1.25
COC(=O)N/N=C/c1cn(Cc2ccccc2F)c2ccccc12 | -1.14
CCCc1cc(=O)[nH]c(SCC(=O)Nc2c(C)cccc2C)n1 | -1.09
COc1cc(/C=N/NC(=O)c2cccnc2)ccc1OS(=O)(=O)c1ccc(F)cc1 | -0.97
Cc1cc(NC(=O)CS(=O)CC(=O)Nc2c(C)cccc2C)ccc1-n1cnnn1 (centres undefined) | -0.06
COc1cccc(CN(C)C(=O)c2ccc(N3CCCC3)c([N+](=O)[O-])c2)c1 | 1.22
O=c1c2c3nc4ccccc4nc3n(/N=C/c3ccncc3)c2ncn1-c1ccccc1 | 0.92
CCOc1ccc(-n2nc3c(Cl)nnc(C)c3c2C)cc1 | 1.47
CCOC(=O)C1CCCN(C(=O)/C=C/c2ccc(Cl)cc2)C1 (centres undefined) | 0.46
COc1ccc(C(=O)Cc2ccc3c(c2)OCO3)c(O)c1 | 2.84
O=C1OC(c2ccccc2)=NC12CC2c1ccc(Cl)cc1 (centres undefined) | -0.17
CCOC(=O)CNC(=O)CSc1ccc2nnc(-c3cccnc3)n2n1 | -1.01
O=C(Oc1ccccc1F)C1CCN(C(=O)c2ccc(F)cc2)CC1 | -0.19
CC(Nc1nc(=S)nc(Nc2ccc(F)cc2)[nH]1)c1ccccc1 (centres undefined) | 0.05
NNC(=S)Nc1cc(S(=O)(=O)N2CCOCC2)ccc1N1CCOCC1 | -0.33
Cn1c(SCC(=O)c2ccccc2)nnc1-c1ccccn1 | 2
Cc1cccc(NC(=O)CN(C2=NC3CS(=O)(=O)CC3S2)c2ccccc2F)c1 (centres undefined) | -0.8
O=C1[C@@H]2Cc3c([nH]c4ccccc34)CN2C(=O)CN1CCCO | 0.27
Oc1ccc(Cl)cc1CNc1cnc2ccccc2c1 | -1.01
COc1ccccc1C(=O)NCCC(=O)NCCOc1ccccc1 | -2.7
Cc1ccc(C)c(Nc2nc(-c3cccnc3)cs2)c1 | 1.5
COc1ccccc1N1CCN(C2CCN(C(=O)COc3ccccc3)CC2)CC1 | 0.25
O=C(c1cc([N+](=O)[O-])cc([N+](=O)[O-])c1)N1CCN(Cc2ccc3c(c2)OCO3)CC1 | -0.29
Cc1ccnc(NS(=O)(=O)c2ccc(NC(=O)C3COc4ccccc4O3)cc2)n1 (centres undefined) | 1.95
CSc1cccc(NC(=O)Cn2cccc2)c1 | -0.94
COc1ccc(S(=O)(=O)N2CCCCC2)cc1NC(=O)c1cc(C)on1 | -0.25

An excerpt from above in order of the Kir21 block value, largest number first.
canonical_smiles | Kir21 block
Cn1c(SCC(=O)c2ccccc2)nnc1-c1ccccn1 | 2
O=C1[C@@H]2Cc3c([nH]c4ccccc34)CN2C(=O)CN1CCCO | 0.27
Cc1cccc(NC(=O)CN(C2=NC3CS(=O)(=O)CC3S2)c2ccccc2F)c1 (centres undefined) | -0.8
